Screening results deposited in PubChem by ICCB-Longwood Screening Facility, Harvard Medical School.
Sa helicase inh = blocks Staphylococcus aureus DNA helicase | purified S. aureus helicase, fluorescence unwinding assay; about half of the hits fall short of the stated cut | inhibition, %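 (tested at about 80 µM)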 | 120,000 compounds, 0.05% hits | AID 485395;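 active means both duplicates at 50% or more, or one of them with a favoured structure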;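 further: 0% = mean of negative control wells and 100% = mean of positive control wells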
MgrA DNA FP = alters Staphylococcus aureus MgrA binding to DNA; 84,000 compounds, 0.13% hits; fluorescence polarization; AID 602314; inhibition, %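 (about 10 µg/mL by stock and volumes)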;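 active means above 50% in either of two replicates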;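 further: 0% = protein plus DNA without compound and 100% = DNA alone without protein; higher means less MgrA bound to DNA so lower polarization; one replicate is shown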
Numbers without * were called inactive; · = no result given; & = joins results of further samples. The list is partial; count on the stated rates, not on these rows.

Preview:
SMILES	Sa helicase inh	MgrA DNA FP
Cn1c(C(C#N)C(=O)c2ccc3c(c2)S(=O)(=O)c2ccccc2C3=O)nc2ccccc21 (stereo unspecified)	3.0	·
CCOC(=O)c1nnn(-c2nonc2-n2cccc2)c1C	13.0	-0.2
O=C(CSc1nccc2ccccc12)N1CCN(c2ccccn2)CC1	23.0	·
CCN(CC(=O)Nc1ccc2c(c1)OCCO2)C(=O)c1cccc(S(=O)(=O)N2CCOCC2)c1	-1.0	·
O=C(O)CN1C(=O)/C(=C\c2cc([N+](=O)[O-])ccc2O)SC1=S	·	0.9
O=C1/C(=C/c2ccc3nccnc3c2)Cc2ccccc21	-31.0	·

Results (from the top)
SMILES	Sa helicase inh	MgrA DNA FP
Cn1c(C(C#N)C(=O)c2ccc3c(c2)S(=O)(=O)c2ccccc2C3=O)nc2ccccc21 (stereo unspecified)	3.0	·
CCOC(=O)c1nnn(-c2nonc2-n2cccc2)c1C	13.0	-0.2
O=C(CSc1nccc2ccccc12)N1CCN(c2ccccn2)CC1	23.0	·
CCN(CC(=O)Nc1ccc2c(c1)OCCO2)C(=O)c1cccc(S(=O)(=O)N2CCOCC2)c1	-1.0	·
O=C(O)CN1C(=O)/C(=C\c2cc([N+](=O)[O-])ccc2O)SC1=S	·	0.9
O=C1/C(=C/c2ccc3nccnc3c2)Cc2ccccc21	-31.0	·
CCCNC(=O)c1oc(=O)c2ccccc2c1-c1ccc(C)cc1	-5.0	1.0
CCOC(=O)c1cc(-c2ccccc2)n(CCC(=O)N(C)C2CCCCC2)c1C	15.0	-2.1
O=c1[nH]cnc2c(-c3ccc(Cl)cc3)nsc12	18.0	·
COc1ccc(C2Nc3ccccc3-n3cccc32)cc1 (stereo unspecified)	·	-1.7
FC(F)(F)c1ccc(Cl)c(N=CNc2cc(C(F)(F)F)ccc2Cl)c1	·	1.0
Cc1ccc2nc(-c3ccc(N=Cc4ccc[nH]4)cc3)sc2c1	6.0	-0.2
COc1ccc2c(c1)N(C)/C(=C1/SC(=O)N(c3ccccc3)C1=O)S2	4.0	1.8
O=C(Cc1ccccc1)Nc1nc2ccc(Cl)cc2s1	11.0	·
CC1Cc2cc(S(N)(=O)=O)ccc2N1Cc1cc2c(cc1Br)OCCO2 (stereo unspecified)	14.0	·
COc1cc(SC)ccc1C(=O)N(C)Cc1nc2ccccc2c(=O)[nH]1	3.0	·
CSc1ccc(C2C3=C(CCCC3=O)NC3=C2C(=O)CCC3)cc1	3.0	0.6
Cc1csc2nc(CSc3ccccc3)cc(=O)n12	9.0	·
CCN(CC)C(=O)CC#N	-5.0	·
O=C1CC2(CCCC2)C(=O)N1Cc1coc(-c2cccs2)n1	-6.0	·
Cc1ccc(S(=O)(=O)C2(C(=O)N3CCCC3)CC2)cc1	16.0	·
c1ccc(-c2nnc(-c3ccccn3)c(-c3ccccn3)n2)nc1	·	0.2
O=C(NCC1COc2ccccc2O1)c1ccc2c(=O)n3c(nc2c1)CCCCC3 (stereo unspecified)	-3.0	·
O=C(COC(=O)c1ccc2[nH]c3c(c2c1)CCCC3)c1ccc2c(c1)OCO2	-3.0	·
Cc1noc(C(=O)N2CCCC2)c1Cl	-6.0	·
C=CCOc1ccc(/C=C2\SC(=S)N(CC(=O)O)C2=O)cc1OC	·	-0.6
N#Cc1ccc(NS(=O)(=O)c2cc(Cl)sc2Cl)cc1	·	0.8
CNS(=O)(=O)c1ccc(F)c(C(=O)OCC(=O)c2c[nH]c3ccccc23)c1	9.0	·
Cc1ccc(N/C(N)=N/c2nc(CSc3nnc(N)s3)cc(=O)[nH]2)cc1	34.0	·
Cc1noc(/C=C/c2cccs2)c1S(=O)(=O)N1CCCC(C(=O)Nc2nccs2)C1 (stereo unspecified)	-7.0	·
O=C(O)c1ccc(N2N=C(C(F)(F)F)/C(=C/c3ccc(OC(=O)c4cccs4)cc3)C2=O)cc1	-12.0	29.8
COC(CNC(=O)CC1C(=O)N(Cc2ccccc2)C(C)c2nc3ccccc3n21)OC (stereo unspecified)	9.0	-0.3
N#CC1=C(SCC(=O)N2CCOCC2)NC(=O)CC1c1ccccc1F (stereo unspecified)	-16.0	·
CNc1ccccc1C(=O)NCc1cccs1	·	-3.2
Cc1c2cnn(-c3ccccc3)c(=O)c2c(C)n1CCCC(=O)NC1CCCCCC1	12.0	-6.9
Cc1ccc(-c2sc(=S)n3c4ccccc4c(=O)n(Cc4ccc(C#N)cc4)c23)cc1	18.0	0.7
c1ccc2sc(SCc3cn4ccsc4n3)nc2c1	-14.0	·
O=C1CN(C(=O)Cn2ncc(Cl)c(Cl)c2=O)c2ccccc2N1	9.0	·
CN1CCc2c(n(CC(O)CNCc3ccccc3)c3ccccc23)C1=O (stereo unspecified)	9.0	-1.1
Nn1c(SCC(=O)N2CCCC2)nnc1-c1ccco1	-8.0	·

Record cards, as listed above:
Results for CNc1ccccc1C(=O)NCc1cccs1 : Sa helicase inh: ·; MgrA DNA FP: -3.2
Results for Cc1ccc(-c2sc(=S)n3c4ccccc4c(=O)n(Cc4ccc(C#N)cc4)c23)cc1 : Sa helicase inh: 18.0; MgrA DNA FP: 0.7
Results for Cc1c2cnn(-c3ccccc3)c(=O)c2c(C)n1CCCC(=O)NC1CCCCCC1 : Sa helicase inh: 12.0; MgrA DNA FP: -6.9

(list continues)
SMILES	Sa helicase inh	MgrA DNA FP
CCc1nc2c(cnn2-c2ccccc2)c(=O)n1-c1ccc(C)cc1	14.0	-7.1
O=C1NC2=C(C(=O)CCC2)C(c2ccc(Cl)cc2)N1 (stereo unspecified)	-2.0	·
CC(C)(C)c1nc(NCC2CCCO2)c2nnn(Cc3ccccc3Cl)c2n1 (stereo unspecified)	-19.0	2.1
CC(=O)Nc1nc(SCC(C)C)n[nH]1	10.0	-0.8
COC(=O)c1ccc(-c2ccco2)n1CC(=O)N1CCN(c2cccc(OC)c2)CC1	3.0	·
O=C(c1ccc(Cl)cc1)c1cccs1	·	-0.1
Cc1cc(C(=O)O/N=C(\N)c2cc(C)on2)no1	22.0	·
Cc1ccc(N2C(/N=C3\N=c4[nH]c5ccccc5c4=N3)=NC23C(=O)Nc2ccccc23)cc1C (stereo unspecified)	-33.0	·
O=C(NCCC1=CCCCC1)C1CCCCC1	-6.0	·
CC(C)CN(CC(C)C)C(=O)Cn1c(=O)oc2ccccc21	10.0	·

3 of these compounds in another layout.
SMILES | Sa helicase inh | MgrA DNA FP
O=C(c1ccc(Cl)cc1)c1cccs1 | · | -0.1
CC(C)CN(CC(C)C)C(=O)Cn1c(=O)oc2ccccc21 | 10.0 | ·
O=C(NCCC1=CCCCC1)C1CCCCC1 | -6.0 | ·

Following part
SMILES	Sa helicase inh	MgrA DNA FP
COc1cc(/C=C/C(=O)O)cc(S(=O)(=O)Nc2ccc3[nH]c(=O)[nH]c3c2)c1OC	11.0	·
O=C(CC1C(=O)Sc2[nH]c(=O)sc21)c1ccc(F)cc1 (stereo unspecified)	-28.0	·
c1ccc2[nH]c(CN3CCCCCC3)nc2c1	10.0	0.1
O=c1nc(-c2ccccc2)c2cc(Br)ccc2[nH]1	7.0&-18.0	·
c1ccc2[nH]c(SCCN3CCOCC3)nc2c1	6.0	10.3
CSc1ccc([C@H]2[C@H](C(=O)O)CC(=O)N2Cc2ccccc2)cc1	2.0	-5.1
Cc1cc(C)c(C)c(OCC(=O)NCC2CCCO2)c1 (stereo unspecified)	-1.0	-2.8
COC(=O)CN1C=C(C(=O)OC)C(c2ccc(Cl)cc2)C(C(=O)OC)=C1	7.0	0.9
COc1ccc(C(=O)COC(=O)c2ccc(N3C(=O)C4C5C=CC(C5)C4C3=O)cc2)cc1 (stereo unspecified)	·	1.3
CCOc1ccc(C(=O)Nc2cccc(NC(=O)c3ccccc3)c2)cc1Br	6.0	0.9
CC(=O)Nc1ccc(/C=N/N2C(=O)c3ccccc3C2=O)cc1	36.0	·
O=S(=O)(Nc1ccccc1)c1ccc2c(c1)OCCO2	7.0	·
Cc1cc(Cl)ccc1OC(C)C(=O)n1cnc2ccccc21 (stereo unspecified)	9.0	·
Cc1nnc(SCC(=O)Nc2ccc(Cl)cc2Cl)n1C	15.0	2.9
C=C(C)CN1C(=O)C2(OCCO2)c2ccccc21	·	-0.2
O=C(CN1CCCCC1)N(c1ccccn1)c1ccccn1	1.0	·
CC1SCC(NS(=O)(=O)c2cc(Cl)sc2Cl)CS1 (stereo unspecified)	·	0.9
O=C(Cn1nc(C(F)(F)F)c2c1CCC2)NC1CCCC1	1.0	2.3
CN=CC1=C(O)c2ccccc2C1=O	4.0	2.2
C=CCOc1cccc(CNc2cccc(C(=O)O)c2)c1	10.0	3.3
O=C(Nc1noc2ccccc12)c1ccccc1	5.0	-0.4
Cc1cccc(C(=O)OCCSc2nc(C)c3cc(C)c(C)cc3n2)c1	9.0	1.0
CCC(=O)NC(C)C(c1cccs1)N1CCN(c2ccccc2)CC1 (stereo unspecified)	11.0	-5.1
COc1cc(CNC(=O)c2ccc(N(C)C)cc2)cc(OC)c1OC	-12.0	·
CC(C)C(=O)Nc1ccc2oc(-c3cncc(Br)c3)nc2c1	-5.0	·
COc1ccc2[nH]c3c(=O)n(CCCN(C)C4CCCCC4)cnc3c2c1	25.0	·
CCOC(=O)c1c(C)n(O)c2ccc3nonc3c12	·	0.9
c1ccc(SCc2nnc3n2CCCCC3)cc1	-15.0	·
O=c1[nH]cnc2cc(-c3ccccc3)sc12	6.0	-1.6
O=C(Cc1ccc(Cl)cc1)N1CCN(c2ccccc2)CC1	-22.0	·
O=C(O)/C=C/c1cnn(Cc2ccccc2)c1	8.0	·
CCN(C(=O)c1ccc(Cl)cc1)c1ccccc1C	-2.0	-1.1
CNC(=O)c1c(C)nc(SCC(=O)N2CCCC2=O)c(C#N)c1-c1ccco1	0.0	·
COc1ccc(N(/C=C2\Sc3ccccc3C2=O)C(=O)c2ccco2)cc1	·	-3.8
O=C(C1=C(O)C(=O)N(Cc2ccccc2)C1c1cccnc1)c1ccco1 (stereo unspecified)	-6.0	-4.2
O=c1c2c(nc3nc[nH]n13)CCC2	-4.0	·
Nc1cc(C(F)(F)F)ccc1Oc1ccc(C2CCCCC2)cc1	16.0	-1.8
O=c1c(Cl)c(NCc2ccco2)cnn1Cc1ccccc1	1.0	-1.3
CCc1cc(-c2[nH]ncc2-c2ccc(Br)cc2)c(O)cc1O	-17.0	·
Cc1ccc(C=Nc2ccc(C(F)(F)F)cc2)s1	4.0	-1.9
Oc1oc(-c2cccc3ccccc23)nc1C=NC1CCCCC1	-10.0	2.2
COc1cc(N(C(=O)Cn2nnc3ccccc32)C(C(=O)NCC2CCCO2)c2cccn2C)ccc1-n1cnnn1 (stereo unspecified)	-5.0	0.7
O=C1Cc2cc(C(=O)CSc3nnc(CN4CCCC4=O)o3)ccc2N1	-11.0	·
NC(=O)c1ccsc1NC(=O)C1CC2C=CC1C2 (stereo unspecified)	-8.0	·
NC(=O)CN1C(=O)/C(=c2\sc3nc(-c4cccs4)nn3c2=O)c2ccccc21	10.0	·
Nc1cc(=O)n2c(n1)SCC(O)C2 (stereo unspecified)	19.0	·
Cc1cc(NC(=O)c2cccs2)c([N+](=O)[O-])cc1C	·	1.3
O=C(CSc1nnc(-c2cccc(Br)c2)o1)c1ccccc1	22.0	·
NC(=O)C1CCCN1 (stereo unspecified)	-16.0	·
O=C1NC(c2cccs2)Nc2sc3c(c21)CCCC3 (stereo unspecified)	-18.0	·
The listing continues.
SMILES	Sa helicase inh	MgrA DNA FP
O=C(COC(=O)c1ccc(S(=O)(=O)C(F)F)cc1)c1ccc(F)c(F)c1	1.0	·
CSc1ccc(/C=N/NC=O)cc1	-11.0	·
COc1ccc(C(=O)COc2cc(=O)oc3ccccc23)cc1	·	-0.1
N#C/C(=C/c1ccc(-c2cccc(C(F)(F)F)c2)o1)c1ccc(C(=O)O)cc1	13.0	13.4
O=C1NCCN1C(=O)NC1CCCCC1	4.0	1.0
Cc1occc(=O)c1OCc1ccc(Cl)cc1	-19.0	·
COc1cc2c(cc1/C=C/C(=O)O)OC(C)C2 (stereo unspecified)	19.0	·
CC(=O)Nc1ccc(S(=O)(=O)Nc2nc3ccccc3nc2Nc2ccc(C(=O)O)c(O)c2)cc1	1.0	·
Cc1cccc(-n2c(=S)n(CN3CCCC3)c3ccccc32)c1	-17.0	·
CCOC(=O)c1cc(-c2ccc(Cl)s2)[nH]n1	-34.0	·
CCCCn1c(Cc2ccccc2)nnc1SCC(=O)NC	3.0	-1.5
O=C(/C=C1\SC(=O)NC1=O)Nc1nccs1	15.0	·
CC(NC(=O)c1ccccc1NC(=O)c1ccccc1)C(=O)NCc1ccco1 (stereo unspecified)	5.0	0.1
CCCOC(=O)c1ccc(NC(=O)c2ccc(C)c(Br)c2)cc1	2.0	-4.8
CCNc1nc2cccnc2s1	·	0.4
Cc1c(C)c(C)c(C(=O)c2ccccc2C(=O)O)c(C)c1C	·	-1.8
O=C(O)CSC1(SCC(=O)O)CCCCC1	·	-0.6
c1nc(N2CCOCC2)nc(N2CCOCC2)n1	0.0	-1.1
CC(C)(C)c1cc(/N=C/c2c(O)[nH]c(=O)[nH]c2=O)n(-c2ccccc2)n1	19.0	·
CN(C)S(=O)(=O)N1CCC(c2nc3ccccc3[nH]2)CC1	-1.0	·
O=C(Nc1ccccc1)NC1Cc2ccccc2C1	·	-1.9
Nc1cc(=O)[nH]c2nnc(SCc3ccccc3)n12	2.0	·
CCc1n[n+]2c(C)cc(C)nc2s1	0.0	-2.4
COc1ccc(NC(=O)C2CCCCN2S(=O)(=O)c2ccc(C(C)(C)C)cc2)cc1 (stereo unspecified)	18.0	2.6
CC1(C)CC(CC(=O)N2CCOCC2)(c2ccccc2)CCO1 (stereo unspecified)	8.0	1.2

In a second layout: entries from further up.
Sa helicase inh	MgrA DNA FP	smiles
0.0	-2.4	CCc1n[n+]2c(C)cc(C)nc2s1
18.0	2.6	COc1ccc(NC(=O)C2CCCCN2S(=O)(=O)c2ccc(C(C)(C)C)cc2)cc1 (stereo unspecified)
